HIV Env fusion – HIV envelope-mediated fusion inhibition; inhibition, % at 12.3 µM; HeLa-JRFL Env/CEM21 cell fusion, luciferase; hit rate 1.1% among 360,000; AID 651610;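 active = mean replicate inhibition score of at least 50 and every replicate individually at or above 50; inconclusive = only one of the two criteria met; inactive = mean below 50 and not all replicates reaching 50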;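 note: 0% = plate neutral controls and 100% = maraviroc near 300 nM; one replicate is shown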
MT1-MMP act inh – MT1-MMP (human) activation inhibition; P50281; HT1080 RFP-PRO-GFP cells, GFP/RFP ratio fluorescence, overnight; percent of plate control window, DMSO zero; GFP/RFP ratio change, % at 20 µM; hit rate 0.061% among 360,000;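 active = GFP/RFP ratio change of at least 30% with cell ATP level not reduced by more than half and red fluorescence within 50% of control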; note: strong numbers were not always called active
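Assay system: HT1080 RFP-PRO-GFP cells. Benchmarks: DMSO vehicle wells and RFP-L50D-GFP reporter cell wells. Times: overnight cell settling, then overnight compound exposure, 37 °C, 5% CO2. Compound: 20 µM single dose, 1% DMSO. Read-out basis: GFP/RFP fluorescence ratio.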
PABP polyA inh – blocks human PABP binding to poly(A) RNA; P11940; hit rate 1% among 290,000; fluorescence polarization; inhibition, % at 35 µM; AID 2014;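 active = 50% or more with normal probe brightness, or confirmed in later tests; inconclusive = above 50% with abnormal brightness, or retests that disagree; inactive = below 50% or failed in later tests; about a fifth of its hits are not listed in these tables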;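 note: calls also rest on retests at 20 µM and on dose response follow-up; controls were probe without protein and protein plus probe with vehicle; some compounds called inactive have numbers as strong as hits; many hits fall short of the cut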
Target sequence (P11940 whole entry, looked up): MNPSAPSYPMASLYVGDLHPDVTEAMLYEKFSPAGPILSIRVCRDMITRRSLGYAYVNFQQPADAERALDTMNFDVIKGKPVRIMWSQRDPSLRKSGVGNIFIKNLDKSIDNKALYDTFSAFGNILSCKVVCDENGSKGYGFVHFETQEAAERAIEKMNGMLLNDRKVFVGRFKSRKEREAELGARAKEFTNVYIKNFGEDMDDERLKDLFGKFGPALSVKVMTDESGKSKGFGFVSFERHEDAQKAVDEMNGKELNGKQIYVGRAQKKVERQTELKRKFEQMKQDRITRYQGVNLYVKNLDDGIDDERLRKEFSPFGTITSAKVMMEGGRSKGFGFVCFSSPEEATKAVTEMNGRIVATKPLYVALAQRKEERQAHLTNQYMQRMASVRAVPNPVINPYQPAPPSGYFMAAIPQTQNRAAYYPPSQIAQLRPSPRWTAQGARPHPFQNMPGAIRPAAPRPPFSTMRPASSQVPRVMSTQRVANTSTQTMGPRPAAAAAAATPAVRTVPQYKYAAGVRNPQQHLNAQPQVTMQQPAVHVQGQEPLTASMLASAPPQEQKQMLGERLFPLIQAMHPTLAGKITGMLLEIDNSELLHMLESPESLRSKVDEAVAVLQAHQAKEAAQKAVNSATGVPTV
eIF4H FP inh – inhibitors of RNA binding by human eIF4H. eIF4H fluorescence polarization binding assay. inhibition, % at 35 µM. hit rate 0.94% among 290,000. Q15056;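 active = 50% or more with normal probe brightness, or confirmed in later tests; inconclusive = above 50% with abnormal brightness, or retests that disagree; inactive = below 50% or failed in later tests; about a fifth of its hits are not listed in these tables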;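 note: calls also rest on retests at 20 µM and on dose response follow-up; 0% = protein and probe with vehicle and 100% = probe without protein; strong numbers were not always called active; many hits fall short of the cut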
CSC inhib – cancer stem cell inhibition. cancer stem cell-like cells viability, luminescence. hit rate 1.1% among 300,000. AID 2717. inhibition, % at 7.5 µM;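 active = mean at 75% or more and at least half the replicates too; inconclusive = mean and replicates disagree; tested in HMLE shEcad cells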;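 note: 0% = median of negative and 100% = median of positive control wells; the first replicate is given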
UUG fidelity – yeast start codon fidelity modulation | S. cerevisiae UUG-firefly luciferase reporter, luminescence/redox ratio | activity score, % at 18.7 µM | hit rate 0.13% among 350,000;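 active = replicate mean at a twofold rise or more, about +100% in these data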;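 note: firefly luciferase made from a UUG start codon reports start codon fidelity; reporter light over untreated wells divided by growth signal over untreated wells; some hits fall short of that in this replicate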
Rce1 inhib – inhibitors of yeast Ras-converting enzyme | Q03530 | yeast membranes, quenched prenylated peptide cleavage fluorescence | calls only | hit rate 0.27% among 290,000 | AID 2563;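 active = fall in fluorescence gain of 50% or more versus controls, with final raw signal at or below 3038400; inconclusive = same 50% fall but final raw signal above 3038400; inactive = fall in fluorescence gain under 50%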;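 note: plate controls were neutral control wells for no effect and wells lacking membranes for full effect; tested at 10 µM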
eIF4H FP inh retest – recorded beside eIF4H FP inh, whose call it bears; inhibition, %; compound at 20 µM; confirmation average;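 mean of two retest wells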
PABP polyA inh retest – further read-out of PABP polyA inh, marked with its call; inhibition, %; compound at 20 µM; confirmation repeats;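 mean of two retest wells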
MT1-MMP act inh RFP – also measured in MT1-MMP act inh; calls as there; RFP signal change, %; measured here: RFP expression control read;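 0 = vehicle wells; hits needed this value within 50% of zero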
Starred values were filed as active, the others as inactive.

Screening COc1cccc(-c2noc(CCC(=O)NC3CCCC3)n2)c1 returned HIV Env fusion -50, MT1-MMP act inh -1, PABP polyA inh 6, eIF4H FP inh -11, CSC inhib -3, UUG fidelity -10, Rce1 inhib inactive and MT1-MMP act inh RFP 0.
Cc1cc(C)cc(CC(=O)N2CCC2(C)C(=O)NS(=O)(=O)c2cc(C)ccc2F)c1 (centres undefined) was read as HIV Env fusion -1, MT1-MMP act inh -6, UUG fidelity -21 and MT1-MMP act inh RFP 1.
Screening CCS(=O)(=O)N1CCC(C(=O)NCc2ccc(F)cc2)CC1 returned HIV Env fusion 6, MT1-MMP act inh 3, PABP polyA inh -2, eIF4H FP inh -12, CSC inhib -7, UUG fidelity -8, Rce1 inhib inactive and MT1-MMP act inh RFP 4.
O=[N+]([O-])c1ccc(/C=N/n2cn[nH]c2=S)cc1 was read as HIV Env fusion -1, MT1-MMP act inh 6, PABP polyA inh -4, eIF4H FP inh -9, CSC inhib -8, UUG fidelity -17 and MT1-MMP act inh RFP 9.
`Cc1cc(C(=O)NNC(=O)Cc2ccc(Cl)cc2)c(C)o1` gave HIV Env fusion -11, MT1-MMP act inh 3, CSC inhib -2, UUG fidelity 1, Rce1 inhib inactive and MT1-MMP act inh RFP 4.
`CC1CCCN(C(=O)C2CCN(CCCc3ccccc3)CC2)C1` (centres undefined) gave PABP polyA inh 6, eIF4H FP inh -9, CSC inhib -9 and Rce1 inhib inactive.
Screening COc1ccc(C(CNC(=O)COc2ccc(F)cc2Br)N2CCCC2)cc1 (centres undefined) returned HIV Env fusion 12, MT1-MMP act inh -3, PABP polyA inh -7, eIF4H FP inh 9, CSC inhib 4, Rce1 inhib inactive and MT1-MMP act inh RFP 3.
`COc1ccc2cc3cc(C(=O)NCCN4CCN(Cc5ccccc5)CC4)oc3nc2c1` gave HIV Env fusion -11, MT1-MMP act inh 9, PABP polyA inh -1, eIF4H FP inh -18, CSC inhib -2, UUG fidelity -4, Rce1 inhib inactive and MT1-MMP act inh RFP -9.
`Fc1ccc(COc2ccccc2CNc2nn[nH]n2)cc1` gave HIV Env fusion -1, MT1-MMP act inh -3, PABP polyA inh -4, eIF4H FP inh -6, CSC inhib -1 and MT1-MMP act inh RFP -2.
Screening CC(C)CC1Nc2ncnc(N3CCCCC3)c2N(Cc2ccccc2)C1=O (centres undefined) returned MT1-MMP act inh -2, CSC inhib 13, UUG fidelity -14, Rce1 inhib inactive and MT1-MMP act inh RFP 1.
For Nc1nc(SCc2ccccn2)c2ncn(C3OC(CO)C(O)C3O)c2n1 (centres undefined) the results were HIV Env fusion 2, MT1-MMP act inh 4, UUG fidelity -16 and MT1-MMP act inh RFP 3.
Screening CC(=O)Nc1cccc(-c2ccnc3c2CC(C)(C(=O)NCc2ccc(F)c(F)c2)O3)c1 (centres undefined) returned HIV Env fusion -40, MT1-MMP act inh 2, UUG fidelity -7 and MT1-MMP act inh RFP -10.
`CCOc1ccc(NC(=O)c2ccccc2SC)cc1` gave HIV Env fusion -19, MT1-MMP act inh 3, PABP polyA inh -4, eIF4H FP inh -2, CSC inhib -3, Rce1 inhib inactive and MT1-MMP act inh RFP 4.
For CCN1C(=O)[C@H]2[C@@H](c3ccc(C)cc3)N3C(=O)N(c4ccc(C)cc4)C(=O)[C@@]3(C)[C@H]2C1=O the results were HIV Env fusion -5, MT1-MMP act inh -3, PABP polyA inh 2, eIF4H FP inh -4, CSC inhib 6, UUG fidelity -13, Rce1 inhib inactive and MT1-MMP act inh RFP 0.
CCn1c(SCC(=O)N/N=C/c2c[nH]c3ccccc23)nnc1-c1ccc(C(C)(C)C)cc1 was read as HIV Env fusion 9, PABP polyA inh 4, eIF4H FP inh -10, CSC inhib 23 and Rce1 inhib inactive.
COC(=O)c1cc(NC(=O)c2c(-c3ccccc3)noc2C)ccc1N1CCOCC1 was read as HIV Env fusion 12, MT1-MMP act inh -3, PABP polyA inh -6, eIF4H FP inh -6, CSC inhib -1, UUG fidelity -3, Rce1 inhib inactive and MT1-MMP act inh RFP 1.
CC(=O)N1c2ccc(S(=O)(=O)N3CCC(C(=O)Nc4cc(C)ccn4)CC3)cc2CC1C (centres undefined) was read as HIV Env fusion 6, MT1-MMP act inh 2, CSC inhib -12, UUG fidelity 14, Rce1 inhib inactive and MT1-MMP act inh RFP -11.
Screening Cc1ccc(SCC(=O)NCC2COc3ccccc3O2)cc1 (centres undefined) returned MT1-MMP act inh 0, CSC inhib 8, UUG fidelity -9 and MT1-MMP act inh RFP 0.
For CCN1C(=O)/C(=C/c2nc3ccccc3c(=O)n2-c2ccc(C)cc2)c2ccccc21 the results were HIV Env fusion 5, MT1-MMP act inh -25, PABP polyA inh -9, eIF4H FP inh -4, CSC inhib 33, Rce1 inhib inactive and MT1-MMP act inh RFP -33.
`Cc1ccc(NC(=O)Cn2nc(C)c(S(=O)(=O)N(C)C)c2C)cc1C` gave HIV Env fusion 6, MT1-MMP act inh 3, PABP polyA inh -5, eIF4H FP inh -7, CSC inhib -8, Rce1 inhib inactive and MT1-MMP act inh RFP 5.
COc1ccccc1NS(=O)(=O)c1ccc2c(c1)N(C(C)=O)CC(C)S2 (centres undefined) was read as HIV Env fusion -1, MT1-MMP act inh 3, PABP polyA inh 3, eIF4H FP inh 1, CSC inhib -5, UUG fidelity -7, Rce1 inhib inactive and MT1-MMP act inh RFP -8.
For O=C(Cc1nc(-c2ccc(Br)s2)cs1)NCCN1CCOCC1 the results were HIV Env fusion 30, MT1-MMP act inh -10, PABP polyA inh 23, eIF4H FP inh 11, CSC inhib 4, UUG fidelity -2, Rce1 inhib inactive and MT1-MMP act inh RFP -1.
`Cc1cc(C(=O)OCc2nnc(-c3ccccc3)o2)c(C)n1-c1ccccc1` gave MT1-MMP act inh -6, PABP polyA inh -3, eIF4H FP inh -8, CSC inhib 39, UUG fidelity -21, Rce1 inhib inactive and MT1-MMP act inh RFP -20.
O=C(COC(=O)Cc1ccc(Cl)cc1)NCc1ccc(Cl)cc1 was read as HIV Env fusion -11, MT1-MMP act inh -1, UUG fidelity -12 and MT1-MMP act inh RFP 0.
`COc1ccccc1-c1c(C)nn2c(N)c(-c3ccccc3)cnc12` gave HIV Env fusion -70, MT1-MMP act inh 4, PABP polyA inh 17, eIF4H FP inh 63, CSC inhib 12, UUG fidelity 1, Rce1 inhib inactive, eIF4H FP inh retest 2, PABP polyA inh retest -2 and MT1-MMP act inh RFP 2.
For COc1cccc(C(=O)COc2ccc(NC(=O)c3cccs3)cc2)c1 the results were HIV Env fusion -20, MT1-MMP act inh 4, PABP polyA inh 8, eIF4H FP inh -4, CSC inhib 50, UUG fidelity -19, Rce1 inhib inactive and MT1-MMP act inh RFP 1.
`CC(=O)Nc1ccc(S(=O)(=O)Nc2ccc3c(c2)n(C)c(=O)n3C)c(C)c1` gave HIV Env fusion -36, MT1-MMP act inh 5, PABP polyA inh 2, eIF4H FP inh -10, CSC inhib -11, UUG fidelity -9, Rce1 inhib inactive and MT1-MMP act inh RFP 6.
CCOC(=O)c1sc(=S)n(CC)c1NC(=O)c1ccccc1C was read as HIV Env fusion -1, MT1-MMP act inh -4, PABP polyA inh -6, eIF4H FP inh -17, CSC inhib -7, UUG fidelity -6, Rce1 inhib inactive and MT1-MMP act inh RFP -1.
`Cc1nc(N2CCCCC2)sc1C=O` gave HIV Env fusion 6, PABP polyA inh -3, eIF4H FP inh -5, CSC inhib 18 and Rce1 inhib inactive.
Screening COc1ccc(N2CCN(CC(=O)N3CCC(C)CC3)CC2)cc1 returned HIV Env fusion 3, MT1-MMP act inh 4, PABP polyA inh 8, eIF4H FP inh -9, CSC inhib 2, UUG fidelity -1, Rce1 inhib inactive and MT1-MMP act inh RFP 5.
For CCOC(=O)C1CCCN(CC(O)COCc2ccccc2OC)C1 (centres undefined) the results were HIV Env fusion 11, MT1-MMP act inh -1, PABP polyA inh 8, eIF4H FP inh 9, CSC inhib -2, UUG fidelity -16, Rce1 inhib inactive and MT1-MMP act inh RFP 0.
`CCn1c2ccccc2c2c3ncc4cccn4c3ccc21` gave HIV Env fusion -10, MT1-MMP act inh -49, PABP polyA inh inconclusive, eIF4H FP inh inconclusive, CSC inhib -2, UUG fidelity -11, Rce1 inhib inactive and MT1-MMP act inh RFP 12.
`Cc1ccc(C(=O)OCC(=O)NCc2cccs2)s1` gave HIV Env fusion 20, MT1-MMP act inh -1, UUG fidelity -33 and MT1-MMP act inh RFP -5.
`Cc1cc(NC(=O)c2ccco2)ccc1-n1cnnn1` gave HIV Env fusion -6, MT1-MMP act inh 3, PABP polyA inh -4, eIF4H FP inh -3, CSC inhib -8, UUG fidelity -9 and MT1-MMP act inh RFP 3.
Cn1c(CSc2nc3ccccc3s2)n[nH]c1=S was read as HIV Env fusion -27, MT1-MMP act inh 4, PABP polyA inh 2, eIF4H FP inh -16, CSC inhib 0, Rce1 inhib inactive and MT1-MMP act inh RFP 2.
`Cc1cccc(Nc2n[nH]c(=S)s2)c1C` gave MT1-MMP act inh 6, PABP polyA inh -2, eIF4H FP inh -4, CSC inhib -10, Rce1 inhib inactive and MT1-MMP act inh RFP 4.
Screening COc1ccc(CNC(=O)c2ccc(Cn3cc(Br)cn3)o2)cc1 returned MT1-MMP act inh -5, PABP polyA inh 1, eIF4H FP inh -22, CSC inhib 0, UUG fidelity -9, Rce1 inhib inactive and MT1-MMP act inh RFP -5.
For Cc1ccc(C(=O)ONC(=O)c2ccc(Cl)cc2)cc1[N+](=O)[O-] the results were HIV Env fusion -13, MT1-MMP act inh 0, PABP polyA inh -6, eIF4H FP inh 1, CSC inhib 26, UUG fidelity -21, Rce1 inhib inactive and MT1-MMP act inh RFP -2.
`O=c1c2ccccc2nc2c3ccccc3c(NCCN3CCOCC3)nn12` gave HIV Env fusion inactive, PABP polyA inh 15, eIF4H FP inh -1, CSC inhib 10 and Rce1 inhib inactive.
Cc1ccccc1Nc1nnc(SCC(=O)NCC2CCCO2)s1 (centres undefined) was read as HIV Env fusion -14, MT1-MMP act inh 1, CSC inhib 1, UUG fidelity -19 and MT1-MMP act inh RFP 6.
Screening O=C(Nc1ccccc1)C1=C[C@@H](c2ccccc2)C[C@@H](OCc2ccc(CO)cc2)O1 returned HIV Env fusion -10, MT1-MMP act inh -2, PABP polyA inh 9, eIF4H FP inh -8, CSC inhib 4, UUG fidelity -17, Rce1 inhib inactive and MT1-MMP act inh RFP -3.
Screening CCOC(=O)c1ccc(COC(=O)c2cc3ccccc3oc2=O)o1 returned MT1-MMP act inh -4, PABP polyA inh -1, eIF4H FP inh -11, CSC inhib -15, UUG fidelity -3 and MT1-MMP act inh RFP -7.
For CCc1ccc(C(=O)NNC(=O)OC)cc1 the results were HIV Env fusion -2, MT1-MMP act inh 5, PABP polyA inh -6, eIF4H FP inh 0, CSC inhib -10, Rce1 inhib inactive and MT1-MMP act inh RFP 1.
`S=C(NCCc1ccccc1)Nc1ccccc1N1CCOCC1` gave HIV Env fusion 9, MT1-MMP act inh 4, PABP polyA inh -2, eIF4H FP inh -2, CSC inhib -4, UUG fidelity -26, Rce1 inhib inactive and MT1-MMP act inh RFP 1.
Screening CC1CCC2(CC1)N=C(N)Nc1nc3ccccc3n12 (centres undefined) returned HIV Env fusion -54, MT1-MMP act inh 2, PABP polyA inh 1, eIF4H FP inh 2, CSC inhib -1, UUG fidelity -15, Rce1 inhib inactive and MT1-MMP act inh RFP 2.
